Bioassay records as filed in PubChem.
MbtI inh: MbtI salicylate synthase inhibition | inhibition, %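 (about 17 µg/mL by stock and volumes)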 | purified MbtI enzyme, fluorescence intensity read-out | P9WFX0 | 0.89% of 100,000 active;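 active means above 50% in both replicates, above 80% if mildly self-fluorescent; inactive means the rest, strongly fluorescent compounds included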;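 further: 0% = mean of negative and 100% = mean of positive controls; one replicate is shown; some compounds called inactive have numbers as strong as hits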
Target sequence (P9WFX0 whole entry, looked up): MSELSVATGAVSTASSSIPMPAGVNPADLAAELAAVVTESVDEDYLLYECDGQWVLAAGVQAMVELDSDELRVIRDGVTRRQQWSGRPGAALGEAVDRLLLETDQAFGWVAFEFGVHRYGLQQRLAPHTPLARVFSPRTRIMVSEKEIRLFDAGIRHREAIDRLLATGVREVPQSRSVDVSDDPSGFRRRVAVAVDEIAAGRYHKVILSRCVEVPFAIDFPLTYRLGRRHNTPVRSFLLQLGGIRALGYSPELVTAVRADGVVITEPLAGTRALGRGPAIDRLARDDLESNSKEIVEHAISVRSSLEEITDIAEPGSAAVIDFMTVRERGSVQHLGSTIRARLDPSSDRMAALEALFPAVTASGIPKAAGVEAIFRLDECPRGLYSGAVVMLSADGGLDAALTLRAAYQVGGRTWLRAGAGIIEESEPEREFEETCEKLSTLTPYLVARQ
PV pol inh: inhibitors of poliovirus RNA polymerase binding and polymerization. P03300. poliovirus polymerase elongation, fluorescence polarization; stronger effect = lower value. % elongation, % (compound at 16.7 µg/mL). 0.66% of 150,000 active; in the data active means % elongation below about 90%; further: some results filed as inactive read as strong as hits
MenB inh: blocks the Mycobacterium tuberculosis MenB enzyme; 0.43% of 100,000 active; MenB enzyme assay, absorbance read-out; some hits fall short of the stated cut; AID 540299; inhibition, %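 (about 12 µg/mL by stock and volumes)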; P9WNP5;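 active means mean of two replicates above 30%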;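 further: 0% = no compound and 100% = wells with inactive enzyme; the first replicate is given; strong numbers were not always called active; inactives centre near -10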
Target sequence (P9WNP5 whole entry, looked up): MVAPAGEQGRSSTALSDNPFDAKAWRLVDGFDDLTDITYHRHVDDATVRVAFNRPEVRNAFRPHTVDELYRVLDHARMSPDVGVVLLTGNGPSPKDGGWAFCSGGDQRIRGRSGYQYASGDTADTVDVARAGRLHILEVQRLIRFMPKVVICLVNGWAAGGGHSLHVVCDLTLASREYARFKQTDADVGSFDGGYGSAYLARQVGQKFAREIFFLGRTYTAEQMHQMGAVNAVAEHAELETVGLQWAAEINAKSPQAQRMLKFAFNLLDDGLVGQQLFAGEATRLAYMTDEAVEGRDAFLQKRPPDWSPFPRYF
PV pol inh intensity: second read-out of PV pol inh, no call of its own (marks repeat the call); % elongation; measured here: total intensity read-out; formula for this scale not given here;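 total fluorescence in place of polarization; lower means less elongation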
Active calls of the source: *; · = no result given; & = joins results of further samples.

SMILES	MbtI inh	PV pol inh	PV pol inh intensity	MenB inh
CCCN(CCC)CN1CC(Cn2c3ccccc3c3ccccc32)OC1=O (stereo not drawn)	-10	103	107	-10
CC(=O)N1CCN=C1SCc1ccc(Br)cc1	3	101	105	-14
OCC1(C2=NOC(O)(C(F)(F)F)C2)CCCCC1 (stereo not drawn)	·	105	109	-13
NC(=O)C1CCN(C(=O)c2cnn(-c3ccccc3)c2-n2cccc2)CC1	-7	104	103	-7
CC(C)N(Cc1ccccc1)C(=S)NC(=O)C1CC1	-13	109	113	-10
COc1ccc(NC(=S)NCC(c2ccccc2)c2c[nH]c3ccccc23)cc1 (stereo not drawn)	-8	102	101	-69
CCc1ccccc1NC(=O)Cn1cnc2ccccc2c1=O	·	99	105	-10
Cn1cnnc1-c1cccc(NC(=O)Nc2cccc3ccccc23)c1	-293	101	103	-18
CC1=CC(=O)N(CCO)C1c1ccc(Cl)cc1 (stereo not drawn)	10	102	106	-7
Cc1ccc(CNC(=O)COC(=O)CN2C(=O)C3CC=CCC3C2=O)cc1 (stereo not drawn)	14	102	104	-21
CCC1CCCCN1C(=O)COc1ccc(F)cc1 (stereo not drawn)	-6	102	102	-16
CCN1CCN(c2ccc(N=Cc3cccc(C)c3O)cc2)CC1	0	101	102	1
COc1ccc(C2NCCS2)cc1 (stereo not drawn)	-7	103	103	-22
CCC(=O)Nc1ccc(S(=O)(=O)N2CCCC2)cc1	-2	100	101	-18
COc1ccc(OC)c(Nc2nc(Nc3cc(OC)ccc3OC)nc(N3CCC(C)CC3)n2)c1	0	100	102	21
Cc1ccc2oc(-c3ccc(NC(=O)C(F)(F)F)cc3)nc2c1	90	102	105	29
CC(C)n1nnc(-c2ccc(OCc3ccccc3F)cc2)n1	-6	101	102	-32
O=C(O)CCC/C=C\C[C@@H]1[C@@H](/C=C/[C@@H](O)COc2cccc(C(F)(F)F)c2)[C@H](O)C[C@@H]1O	-9	100&98	105&104	0
CN1CCCN(C(=O)NC(C)(C)C)c2nc3ccccc3nc21	-55	99	87	-50
FC(F)(F)CNCc1ccccc1	5	102	99	7

Arranged by SMILES length (smallest number first): part of the list above.
SMILES	MbtI inh	PV pol inh	PV pol inh intensity	MenB inh
COc1ccc(C2NCCS2)cc1 (stereo not drawn)	-7	103	103	-22
CCc1ccccc1NC(=O)Cn1cnc2ccccc2c1=O	·	99	105	-10
CC(C)n1nnc(-c2ccc(OCc3ccccc3F)cc2)n1	-6	101	102	-32
CCN1CCN(c2ccc(N=Cc3cccc(C)c3O)cc2)CC1	0	101	102	1

Rewritten with bars between the fields: entries from further up
mol | MbtI inh | PV pol inh | PV pol inh intensity | MenB inh
FC(F)(F)CNCc1ccccc1 | 5 | 102 | 99 | 7
CCc1ccccc1NC(=O)Cn1cnc2ccccc2c1=O | · | 99 | 105 | -10
CC1=CC(=O)N(CCO)C1c1ccc(Cl)cc1 (stereo not drawn) | 10 | 102 | 106 | -7

(further entries)
SMILES	MbtI inh	PV pol inh	PV pol inh intensity	MenB inh
CC[N+]12CCC(CC1)C(C(=O)c1cccs1)C2 (stereo not drawn)	12	104	98	11
S=C(NC1CCCCC1)N1CCCCC1	-12	103	106	-4
COc1ccc(C=Nc2ccccc2Sc2c(C)n[nH]c2C)cc1	-8	102	100	·
CCOC(=O)c1ccc(COC(=O)c2ccc(-c3nnc(-c4ccccc4)o3)cc2)o1	67	99	99	0
Cc1c(C(=O)O)sc2ccccc12	8	100	93	16
CCCn1cc(SCC(=O)N2CCc3ccccc32)c2ccccc21	-1	101	102	-36
O=C(Cn1c(CC(=O)N2CCOCC2)nc2ccccc21)Nc1ccc2c(c1)OC(F)(F)O2	-4	101	94	-24
Cc1cc(N2CCCCC2)nc(-c2ccc(Br)cc2)n1	·	103	92	-30
CCCP(=O)(CC(=O)O)c1ccccc1 (stereo not drawn)	-10	100	102	21
CNCCc1ccncc1	-2	103	103	-30
CCC(=O)Nc1ccc(C2=NN(C)C(=NCc3ccccc3)SC2)cc1	14	98	90	-37
O=C(Cc1ccccc1)Nc1cccc(-c2nc3ccccc3o2)c1	-20	104	102	-28
CCc1c(C)sc(NC(=O)c2cc(-c3ccccc3)on2)c1C#N	·	83*	84*	-11
N#CC(C#N)=Cc1cn(-c2ccccc2)nc1C(=O)c1ccccc1	-3	108	106	-41
CCC1CN(C(=O)Nc2cccc(C)c2)c2ccccc2S1 (stereo not drawn)	-7	100	103	-3
COc1ccc2nc(NC(=O)c3ccco3)sc2c1	58	103	108	-18
O=c1[nH]c(CN2CCN(S(=O)(=O)/C=C/c3ccccc3)CC2)nc2ccccc12	0	109	116	-20
O=C(O)CCNS(=O)(=O)c1ccccc1	-5	98	108	9
Fc1ccc(CN(C(=S)Nc2ccccc2F)C2CCCCC2)cc1	1	101	104	-36
CC1CCCCN1C(=O)C1c2ccccc2Oc2ccccc21 (stereo not drawn)	-3	100	107	-15

Some of the entries above in another layout:
Values run as follows: MbtI inh, PV pol inh, PV pol inh intensity, MenB inh
CCCN(CCC)CN1CC(Cn2c3ccccc3c3ccccc32)OC1=O (stereo not drawn)
→ -10, 103, 107, -10
COc1ccc(NC(=S)NCC(c2ccccc2)c2c[nH]c3ccccc23)cc1 (stereo not drawn)
→ -8, 102, 101, -69
CC(C)n1nnc(-c2ccc(OCc3ccccc3F)cc2)n1
→ -6, 101, 102, -32
CCCP(=O)(CC(=O)O)c1ccccc1 (stereo not drawn)
→ -10, 100, 102, 21
CC[N+]12CCC(CC1)C(C(=O)c1cccs1)C2 (stereo not drawn)
→ 12, 104, 98, 11
O=C(O)CCNS(=O)(=O)c1ccccc1
→ -5, 98, 108, 9
Cc1c(C(=O)O)sc2ccccc12
→ 8, 100, 93, 16

Later entries.
SMILES	MbtI inh	PV pol inh	PV pol inh intensity	MenB inh
Cc1ccc(S(=O)(=O)n2nccc2-c2c(-c3ccc(Cl)cc3)noc2C)cc1	7	103	102	-10
CC12CN3CC(C)(CN(C1)C3C1CCCCC1)C2=O (stereo not drawn)	-5	104	111	-8
COCCn1c(Cc2ccccc2)nnc1SCC(=O)c1ccc(O)cc1O	-11	99	102	0
Cn1c(=NC(=O)Cn2cnnn2)sc2ccccc21	3	102	106	-20
CC(C)(C)C(=O)Nc1ccn([C@H]2C[C@H](O)[C@@H](COC(=O)C(C)(C)C)O2)c(=O)n1	-6	104	109	-3
O=C(COC(=O)c1ccccc1C(=O)c1ccc(Cl)cc1)Nc1ccccc1	-5	102	108	·
COc1ccc(C2C3CCc4ccccc4C3=NN2C(=O)CN2CCOCC2)cc1 (stereo not drawn)	20	101	100	-2
O=C(NCc1ccc(Cl)cc1)c1cc(-c2ccc(F)cc2)nc2ccccc12	27	101	97	-15
CN1CCN(NC(=O)Cc2cccs2)CC1	-1	101	102	-18
COc1nc(Nc2ccc(C)cc2)nc(NC2CCCC2)n1	-9	101	102	5
CCOc1ccc(NC(=O)N(Cc2cn(C)c3ccccc23)C2CCCCC2)cc1	4	106	109	-25
O=C(Nc1ccc(S(=O)(=O)C(F)F)cc1)C1CC(=O)N(Cc2ccccc2)C1 (stereo not drawn)	-2	108	116	3
c1ccc(CN(CCN(Cc2ccccn2)Cc2ccccn2)Cc2ccccn2)nc1	-14	104&102	105&105	30*
CSCCC(N)c1nc2ccccc2n1Cc1ccccc1 (stereo not drawn)	-3	102	99	·
CCOC(=O)C(N)Cc1c[nH]c2ccccc12 (stereo not drawn)	-3	·	·	1
CCc1ccc(N2C(=O)CC(C(=O)OC)=C2C)cc1	15	101	101	-18
O=C(NCCn1ccc2ccccc21)c1ccc(F)cc1	16	99	102	6
C#CCn1c(C2CC(=O)N(C)C2)nc2ccccc21 (stereo not drawn)	-6	104	102	-14
CCCS(=O)(=O)NCCc1csc(-c2cccc(C)c2)n1	-5	101	108	1
COC(=O)/C(=C\c1cccnc1)N(C)C(=O)c1ccc(F)cc1	-1	103	103	-16

Among those listed so far, 4 have a thiophene ring, fused or not.
SMILES	MbtI inh	PV pol inh	PV pol inh intensity	MenB inh
CC[N+]12CCC(CC1)C(C(=O)c1cccs1)C2 (stereo not drawn)	12	104	98	11
Cc1c(C(=O)O)sc2ccccc12	8	100	93	16
CCc1c(C)sc(NC(=O)c2cc(-c3ccccc3)on2)c1C#N	·	83*	84*	-11
CN1CCN(NC(=O)Cc2cccs2)CC1	-1	101	102	-18

Following part
SMILES	MbtI inh	PV pol inh	PV pol inh intensity	MenB inh
COc1ccc(Oc2cc(F)nc(N)n2)cc1	-13	104	103	-29
N#C/C(=C(/O)CN1CCCN(c2ccc(C(F)(F)F)cn2)CC1)c1nc2ccccc2[nH]1	1	104	106	10
COC(=O)CSc1nc2ccccc2n1-c1cccc(C)c1	-4	104	110	-13
COc1ccc2ncc(O)cc2c1	-171	98	103	9
Cc1[nH]c2ccc(-c3nnc(SCc4ccc(C(=O)O)cc4)o3)cc2c1C	14	103	102	-20
CCCn1c(=O)c(CCc2ccccc2)nc2c1c(=O)[nH]c(=O)n2Cc1ccccc1	-148	110	119	5
N#Cc1ccccc1CSc1n[nH]c(=O)[nH]c1=O	7	91	104	-25
O=C(CSc1nnc(-c2cccc(S(=O)(=O)N3CCOCC3)c2)o1)Nc1ncc(C(F)(F)F)cc1Cl	31	103	105	-11
Cc1cc2ncn(CCC#N)c2cc1C	-7	104	101	-18
CCC(C)(C)n1nnnc1CN1CCC(NC(=O)COC)CC1	0	100	99	20
CCCCNc1nc2ccccc2n1CC(=O)c1cc(C)n(C)c1C	-2	105	105	-18
COC1(OC)N=C(N)C2(C#N)C3C=CC(CC3)C12C#N (stereo not drawn)	·	106	106	5
N#CCCn1nc(-c2ccccc2)cc1NS(=O)(=O)c1ccc(Cl)c(Cl)c1	0	102	95	11
CN(C)C(=O)Cn1cc(S(=O)(=O)Cc2ccccc2)c2ccccc21	1	104	108	-24
NNC(=O)Cc1nc2ccccc2[nH]1	·	107	109	-38
Cc1nn(-c2ccccc2)c2sc(C(=O)OCc3cscn3)cc12	-10	106	110	-33
CC(CCc1ccccc1)NC(=O)c1ccc(=O)[nH]c1 (stereo not drawn)	4	99	99	·
Cc1ccc(S(=O)(=O)NC(=O)NC2CCCCC2NC(=O)NS(=O)(=O)c2ccc(C)cc2)cc1 (stereo not drawn)	0	96	101	2
CCC(=O)N1N=C2CCCCC2C1(O)C(F)(F)F (stereo not drawn)	2	100	101	16
Cc1ccnc(N2CCCC(C(=O)NCCCc3ccccc3)C2)n1 (stereo not drawn)	-8	101	100	-2
CC1CC(C)CN(S(=O)(=O)N2CCCC(C(=O)NCCN3CCOCC3)C2)C1 (stereo not drawn)	-5	105	105	9
CC1=C/C(=N\NC(=O)COc2ccc(C#N)cc2)CC(C)(C)C1	-9	99	101	-18
CCC1c2ccc(C)n2CCN1C(=O)Nc1ccccc1Cl (stereo not drawn)	46	101	107	-16
COc1ccc(Cn2nnnc2CN2CCc3ccccc32)cc1	0	102	102	-15
Cc1nn(C(C)C(=O)NC(C)CCc2ccccc2)c(=O)c2cc3sccc3n12 (stereo not drawn)	4	102	102	-17
Cc1cc(SCc2ccc(F)cc2)c(C)cc1Cl	4	103	101	0
Cc1ccc(S(=O)(=O)N2CC=C(C(=O)NCc3cccs3)CC2)cc1	7	101	107	10
O=C(COC(=O)C1CCCCC1)c1ccc(Cl)s1	-7	99	101	·
Cc1ccc2c(c1)-c1c(cnn1CC(=O)NCCc1ccsc1)CO2	-1	101	103	-21
CNC(=O)Nc1ccc(C(=O)NC)cc1	·	98	100	-14
Cc1ccn2c(=O)cc(CNCC(c3ccc(F)cc3)N3CCOCC3)nc2c1 (stereo not drawn)	13	96	95	27
COc1ccc(OC)c(/C=C/C(=O)NCCN2CCC(N(C)C3CCCCC3C)CC2)c1 (stereo not drawn)	33	101	103	-11
CC(C)n1cc(C(=O)c2ccccc2O)cc1-c1nc2ccccc2c(=O)[nH]1	-9	101	96	8
CS(=O)(=O)c1nnnn1-c1cccc2ccccc12	19	102	101	-2
CCC1(C)NC(=O)N(/N=C/c2cc(C)n(-c3cccc(S(=O)(=O)N4CCOCC4)c3)c2C)C1=O (stereo not drawn)	14	102	94	5
CC1CCc2nc(SC3CC(=O)C4OCC3O4)nc(C(F)(F)F)c2C1 (stereo not drawn)	·	102	104	-5
Cc1ccc(C)c(Cc2cc(Cl)ccc2Cl)c1	·	105	111	-8
CCN(CC)C(=O)CS(=O)(=O)Cc1nc(-c2cccc(OC)c2)oc1C	38	98	105	5
CCOc1ccc(NC2=CC(=O)CCC2)cc1	-11	101	110	3
Cc1cccc(C(=O)NCC(=O)NN)c1	3	101	103	-7
